# FEN1 inh: blocks human flap endonuclease 1 | P39748 | Recombinant FEN1 flap cleavage, fluorescence, 15 min | Potency, µM (series often up to 114 µM), inactives show top-dose activity change, negative = inhibition, most hits filed as inhibitors | 0.35% of 390,000 active | AID 588795; also: nearly all actives have a fitted effect of over 65% in size
# Target sequence (P39748 whole entry, looked up): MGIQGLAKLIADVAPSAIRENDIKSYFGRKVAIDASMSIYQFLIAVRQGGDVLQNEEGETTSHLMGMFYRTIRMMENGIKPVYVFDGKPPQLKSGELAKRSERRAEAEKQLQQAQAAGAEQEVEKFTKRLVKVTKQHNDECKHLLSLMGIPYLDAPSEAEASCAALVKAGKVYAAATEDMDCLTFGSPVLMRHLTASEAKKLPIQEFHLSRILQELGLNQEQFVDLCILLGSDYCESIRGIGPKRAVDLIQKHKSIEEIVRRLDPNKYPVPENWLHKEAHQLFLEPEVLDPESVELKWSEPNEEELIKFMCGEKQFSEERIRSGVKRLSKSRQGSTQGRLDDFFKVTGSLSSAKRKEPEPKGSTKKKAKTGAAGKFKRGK
#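 Recombinant FEN1 (10 nM) was preincubated with pin-transferred compounds for 15 min at room temperature, then flap DNA substrate (50 nM final) was added. Plates were read at 0 and 15 min, and normalized concentration–response data were fitted to a four-parameter Hill equation.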
# GCN5L2 inh: blocks human GCN5L2 histone acetyltransferase | Q92830 | GCN5L2 HAT assay, ThioGlo1 CoA-SH fluorescence | Potency, µM (top dose mostly 58.9 µM), without a hit: at the highest dose activity change, negative = inhibition, usual class: inhibitors | 0.21% of 390,000 active | AID 504327
#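 Enzyme at 20nM final was mixed with library compounds for 15 min at room temperature. Peptide H3(1-25) at 75uM, acetyl-CoA at 70uM and ThioGlo1 at 50uM were then added. Plates were read immediately and after 20 min (Ex340nm/Em540nm).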
# An asterisk follows results filed as active; ? = inconclusive; nt = not tested or not shown; & = joins results of further samples; [ ] = another dose, or the depositor's remark. Calls follow the shape of the dose curve; as a rule, active = well fitted curve in the direction sought with a large enough effect; inconclusive = small, poorly fitted or top-dose-only effect, or another doubt; inactive = no such curve, though single readings can be large; an effect the other way counts as inactive or inconclusive. % is scaled to controls: 0 for no effect and ±100 for the full control effect; potency is read from the fitted curve at half-maximal effect. Not all compounds are listed; most or all hits stand in other tables.
# Below each compound: FEN1 inh	GCN5L2 inh
> O=[N+]([O-])c1ccc(/C=N/N2CCN(c3ccncc3S(=O)(=O)N3CCCCC3)CC2)cc1
  -11%	-1%
> CCN(CC)c1nc2c(s1)C(=O)CC(C)(C)C2
  3%	0%
> Cc1ccc(CCNC(=O)c2cc(C)nc3c2c(C)nn3-c2ccc(C)cc2)cc1
  -8%	6%
> S=C1NCN(Cc2cccnc2)CN1c1cccc2ccccc12
  3%	-5%
> O=C(c1ccco1)N1CCN(C(c2ccccc2)c2nnnn2C2CCCC2)CC1 (configuration not stated)
  -3%	-7%
> COC(=O)C(C(=O)OC)C(C[N+](=O)[O-])c1ccc(O)c(OC)c1 (configuration not stated)
  8%	2%
> CC(C(=O)O/N=C(\N)c1ccccn1)c1ccc([N+](=O)[O-])cc1 (configuration not stated)
  -11%	27%
> O=C(CCCn1c(=O)[nH]c2cc(Cl)ccc2c1=O)NC1CCCCCC1
  -2%	-8%
> COc1cccc2c1OC[C@@H](CO)[C@H]2N(C)C(=O)Nc1ccc(Cl)cc1
  -6%	-9%
> O=C(CN1C(=O)/C(=C/c2ccccc2)Sc2ccccc21)NCCCN1CCOCC1
  -18%	-3%
> Cn1cc([N+](=O)[O-])c(C(=O)Nc2sc3c(c2C#N)CCC3)n1
  13%	-10%
> Cc1cc(NC(=O)c2cc(C(C)C)on2)nn1Cc1ccc(Cl)cc1
  -21%	-9%
> COc1nc(-c2ccccc2)ccc1-c1noc(-c2cccnc2)n1
  -6%	-11%
> COc1ccc2oc(=O)c(C(=O)NCc3ccc4c(c3)OCO4)cc2c1
  3%	-2%
> CCOc1c(CNc2nnnn2C)cccc1OC
  6%	3%
> CCOc1ccc(-c2nnn(CC(=O)Nc3cc(OC)cc(OC)c3)n2)cc1OCC
  -12%	-2%
> CC(OC(=O)CC(NC(=O)c1ccccc1Cl)c1ccccc1)C(=O)Nc1cccc(Cl)c1Cl (configuration not stated)
  -16%	-6%
> O=C(/C=C/c1ccc2c(c1)OCO2)Nc1cccnc1
  -14%	-4%
> COC(=O)c1ccc(OC)c(CSc2nnc(COc3cccc(C)c3)o2)c1
  -16%	-5%
> O=C(Nc1ccccc1)C1C2/C=C\CCCCC21 (configuration not stated)
  4%	-5%

# Three entries picked at random from the list so far, as already listed:
# Below each compound: FEN1 inh	GCN5L2 inh
> Cn1cc([N+](=O)[O-])c(C(=O)Nc2sc3c(c2C#N)CCC3)n1
  13%	-10%
> COc1nc(-c2ccccc2)ccc1-c1noc(-c2cccnc2)n1
  -6%	-11%
> O=C(/C=C/c1ccc2c(c1)OCO2)Nc1cccnc1
  -14%	-4%

# Next part:
# Below each compound: FEN1 inh	GCN5L2 inh
> O=C(N/N=C\c1cc([N+](=O)[O-])ccc1N1CCOCC1)c1ccccn1
  -4%	-2%
> O=C(CSc1nnc(NC(=O)c2ccco2)s1)NC1CCCCC1
  2%	-5%
> O=S(=O)(/C=C/c1ccccc1)N1CCOCC1
  5%	-9%
> C[C@H](CO)N1C[C@H](C)[C@@H](CN(C)C(=O)Nc2ccccc2)Oc2ccc(NS(=O)(=O)c3ccccc3)cc2C1=O
  -8%	0%
> COc1ccc([N+](=O)[O-])cc1NC(=O)C(C)OC(=O)C1c2ccccc2Oc2ccccc21 (configuration not stated)
  -3%	37%
> CCOC(=O)c1c(C)c(-c2ccccc2)n(CC(=O)NCCc2cccc(C)c2)c1C
  0%	0%
> COc1cc(NC(=O)COc2c(C)cc(C)cc2[N+](=O)[O-])c(OC)cc1Cl
  -4%	-7%
> O=C(O)CCC(=O)N1c2ccccc2NC2=C(C(=O)CC(c3ccc(F)cc3)C2)C1c1ccc([N+](=O)[O-])o1 (configuration not stated)
  -5%	-3%
> COc1ccc(CCNC(=O)c2cc(=O)c3c(C)cc(C)cc3o2)cc1OC
  -9%	-6%
> Clc1ccc2nc(CSc3nc4ccccc4o3)cn2c1
  3%	-5%
> O=C(Nc1nc2c(cc3c4c(cccc42)CC3)s1)c1ccccc1Cl
  -23%	?
> COc1ccc(OCc2cc(C(=O)N3CCSCC3)no2)c(Cl)c1
  -1%	-4%
> O=C(NCc1cccs1)c1cnc2sccn2c1=O
  -14%	-3%
> Cc1ccccc1OCCOCCN1CCCCCC1
  -12%	-10%
> Cc1nc(N)sc1-c1csc(Nc2ccc(S(N)(=O)=O)cc2)n1
  -7%	-16%
> O=C(NCCCCCCNC(=O)N1CCCCCC1)N1CCCCCC1
  -2%	-4%
> O=c1c2ccccc2cnn1-c1ccc2ccccc2c1
  5%	-4%
> CCCN(C(=O)CSCc1ccc(Cl)cc1)c1c(N)n(Cc2ccccc2)c(=O)[nH]c1=O
  0%	1%
> Clc1cc2c(c(CSc3nc4ccccc4n4cccc34)c1)OCOC2
  -1%	-3%
> CCCOP(=O)(OCCC)C(NC(=O)C(C)(C)C)c1ccccc1 (configuration not stated)
  19%	0%
> CCN(CC)CCOc1ccc(/C(=C(\Cl)c2ccccc2)c2ccccc2)cc1
  -20%	1%
> COc1ccc(NS(=O)(=O)c2ccc(NC(=O)c3ccc(N(C)S(C)(=O)=O)cc3)cc2)c(OC)c1
  1%	-1%
> CCCSc1nnc2c(n1)OC(c1sccc1C)Nc1ccccc1-2 (configuration not stated)
  -20%	-22%
> O=C(Cc1csc(N2CCOCC2)n1)N/N=C/c1ccccc1C(=O)O
  -11%	-5%
> COc1ccc(OC(C)C(=O)Nc2ccc(F)cc2F)cc1 (configuration not stated)
  3%	-5%
> CCOc1ccc2ccccc2c1/C=N/NC(=O)CC1(C)OCCCO1
  2%	-3%
> CCOC(=O)C1CCN(Cc2nc(-c3ccc(OC)c(OC)c3)no2)CC1
  -15%	2%
> O=C(OCc1ccccc1)c1ccc(O)cc1
  nt	20%
> CCC(C(=O)OCC(=O)Nc1c(Cl)cc(Cl)cc1Cl)c1ccccc1 (configuration not stated)
  -3%	-23%
> Cn1nc(C2CC2)cc1NC(=O)CC(CC(=O)O)c1ccccc1 (configuration not stated)
  18%	1%
> Cn1c(=O)c2c(SCC(=O)NCC3CCCO3)nc(-c3ccccc3Cl)nc2n(C)c1=O (configuration not stated)
  -5%	-2%
> CCOc1c(C)cnc2c1c(=O)n(Cc1ccccc1F)c(=O)n2C
  16%	0%
> COc1cccc(NC(=O)CCNS(=O)(=O)c2ccc(Br)s2)c1
  0%&-2%	-20%&-2%
> Cc1cccc(C)c1OCc1cc(C(=O)N2CCNC(=O)C2)no1
  2%	-9%
> S=C(Nc1ccccc1)Nc1ccc(OCc2ccccc2)cc1
  8%	-6%
> COc1ccc(Cl)cc1NC(=S)N(Cc1ccccc1C)CC1CCC(C(=O)O)CC1 (configuration not stated)
  14%	-4%
> COC(=O)c1ccccc1NC(=O)c1ccc(Cn2cc(Cl)cn2)o1
  -1%	3%
> O=C(CN(CC1CCCO1)S(=O)(=O)c1ccc(S(=O)(=O)NC2CC2)cc1)Nc1ccccc1 (configuration not stated)
  -15%	1%
> Cc1ccc(C2NC(=O)c3c(sc4c3CCN(C)C4)N2)s1 (configuration not stated)
  -5%	-10%
> COc1cc2c(cc1OC)C1C(=O)c3cc(OS(C)(=O)=O)c(OC)cc3C1N(C)C2=O (configuration not stated)
  -4%	nt

# The listing continues:
SMILES | FEN1 inh | GCN5L2 inh
Fc1ccc(Nc2nc(SCc3cccc(Cl)c3)nc3ccccc23)cc1 | -21% | -4%
COc1ccc(NC(=O)c2nn(C)c3c2CS(=O)(=O)c2ccccc2-3)cc1 | 5% | 1%
COc1ccc2c(c1)CC(NC(=O)Nc1c(C)cc(C)cc1C)CO2 (configuration not stated) | 20% | -7%
CC(=O)Nc1ccc(C(=O)OCC(=O)NCc2ccc3c(c2)OCO3)cc1 | -3% | -3%
CCOC(=O)c1cnn(-c2ncnc3sc(C)c(C)c23)c1N | 0% | 1%
O=[N+]([O-])c1cccc(CP(=O)(c2ccccc2)c2ccccc2)c1 | -5% | -3%
O=C(Cc1coc2ccc3ccccc3c12)N1CCc2ccccc21 | -10% | -2%
COc1ccccc1CNc1ccc(N2CCCCC2)cc1 | -7% | -3%
O=C(c1ccc(CS(=O)c2ccccc2Cl)o1)N1CCCCCC1 (configuration not stated) | -5% | -19%
COC(=O)[C@H](C)NC(=O)Nc1ccccc1F | 2% | 1%

# Profiles, quoted from the list. Values in the order: FEN1 inh, GCN5L2 inh
# CC(OC(=O)CC(NC(=O)c1ccccc1Cl)c1ccccc1)C(=O)Nc1cccc(Cl)c1Cl (configuration not stated) as listed: -16%, -6%
# O=C(Cc1csc(N2CCOCC2)n1)N/N=C/c1ccccc1C(=O)O as listed: -11%, -5%
# COc1ccc(OC(C)C(=O)Nc2ccc(F)cc2F)cc1 (configuration not stated) as listed: 3%, -5%
# COc1ccc(OCc2cc(C(=O)N3CCSCC3)no2)c(Cl)c1 as listed: -1%, -4%

# The list goes on:
SMILES | FEN1 inh | GCN5L2 inh
O=C(Nc1cc(Cl)ccc1N1CCCCC1)c1cccs1 | -3% | -5%
Cc1cc(C)cc(NC(=O)c2ccc(CN3CCc4ccccc4C3)cc2)c1 | -8% | -10%
COc1ccc(OCc2cc(C(=O)N3CCCC3)no2)c2ccccc12 | ? | 7%
O=C(Cn1cnc2ccccc21)Nc1cc(C(F)(F)F)ccc1N1CCOCC1 | 1% | -2%
O=C(C1CCN(S(=O)(=O)c2cccs2)CC1)N1CCCCCC1 | 2% | 1%[0.501 µM]
Cc1ccc(C2(c3ccc(C)cc3)NC(=O)N(CC(=O)NCCCN3CCCC3=O)C2=O)cc1 | -16% | 1%
O=C(CCN1C(=O)C2C3C=CC(C3)C2C1=O)Nc1c(F)cccc1F (configuration not stated) | 1% | 44%[activator]
CCOC(=O)Cc1csc(NC(=O)/C=C/c2cccc(Br)c2)n1 | 7% | -9%
O=C(O)COc1ccc2c(c1)CCCC2 | 1% | -1%
Cc1ccc(S(=O)(=O)N2CCCCC2C(=O)O)cc1 (configuration not stated) | 10% | 4%
CCn1cc(C(=O)NCc2ccccc2Cl)c(=O)c2cc(S(=O)(=O)N3CCCCC3)ccc21 | 19% | 0%
Cn1c(=O)c(=O)n(C)c2cc(S(=O)(=O)N3CCCC3C(=O)Nc3cccc(F)c3)ccc21 (configuration not stated) | -3% | 2%
CCOc1ncccc1C(=O)Nc1nnc(C(CC)CC)s1 | -9% | -5%
N#CCN(C(=O)COC(=O)C1CC2CCCC(C1)C2=O)c1ccccc1 (configuration not stated) | -3% | -6%
CCc1ccc(CNC(=O)c2ccc3c(c2)nc2n3CCCCC2)cc1 | -14% | 2%
CCC1CN(C(=O)N2CCC(C(=O)NCc3cc(OC)c(OC)c(OC)c3)CC2)c2ccccc2O1 (configuration not stated) | -13%&5% | 0%&-6%
CS(=O)(=O)N(CC(=O)Nc1ccc(F)cc1F)c1cccc([N+](=O)[O-])c1 | 7% | -10%
Cc1cccc(NC(=O)CSc2nc3nc4c(cc3c(=O)n2-c2ccccc2)CCCC4)c1 | -1% | 45%[activator]
COc1cc(CNc2nc(C)c([N+](=O)[O-])c(C)c2C#N)cc(OC)c1 | -17% | -17%
COc1ccc(-c2noc(CSc3nc4sc(C)c(C)c4c(=O)n3-c3ccccc3)n2)cc1 | -3% | -11%
COc1ccc(C(=O)Nc2ccccc2C(=O)N/N=C/c2ccccc2OC)cc1 | -3% | -1%
CC(=O)NC(CC(=O)NC12CC3CC(CC(C3)C1)C2)c1ccccc1 (configuration not stated) | 1% | 0%
Clc1ccc(CNc2nc(CN3CCOCC3)nc3scc(-c4ccccc4)c23)cc1 | -21% | -2%
Cc1ccc(NC(=O)CN2CCN(CCN=CC3=C(O)CC(c4ccccc4)CC3=O)CC2)cc1 (configuration not stated) | 4% | 2%
C#CCOCCOCCOCCNc1nc(N2CCN(C(=O)[C@H]([C@@H](C)CC)n3cc([C@@H](N)CO)nn3)CC2)nc(N2CCN(C(=O)[C@H]([C@@H](C)CC)n3cc([C@@H](N)CC(C)C)nn3)CC2)n1 | 14% | 4%
O=S(=O)(CCc1nc2ccccc2o1)c1ccc(Cl)cc1 | -3% | -3%
CC(C)(C)C(=O)Nc1nnc(SCc2ccc(F)cc2)s1 | -21% | -12%
COC(=O)C1(Cc2ccccc2)NC(c2ccccc2C)C2C(=O)N(c3ccc4c(c3)OCO4)C(=O)C21 (configuration not stated) | -7% | -4%
CC(=O)OCC(=O)[C@]1(O)C(C)CC2C3CCC4=CC(=O)C=C[C@@]4(C)[C@]3(F)C(O)C[C@@]21C (some centres not stated) | nt | 5%
CCCCN(Cc1nc2ccccc2c(=O)[nH]1)C(=O)CN1C(=O)NC2(CCCCC2)C1=O | 4% | 0%
O=C1c2ccc(Br)cc2C(=O)N1c1ccc(Cc2ccncc2)cc1 | -3% | -12%
CN(C)C(=O)c1nnsc1Sc1ccc(Cl)cc1 | 0% | -4%
OC(CNCc1ccccc1Cl)C(F)(F)F (configuration not stated) | -1% | -7%
CC(=O)N1CCN(c2cc(N3CCCC3)c(F)cc2[N+](=O)[O-])CC1 | 9% | -2%
Cc1cc(C(=O)N/N=C2\CC(=O)CC(C)(C)C2)n[nH]1 | -1% | -3%
Cc1ccc2c(c1)N(CC(=O)NCc1ccco1)C(=O)C(C(C)C)O2 (configuration not stated) | -8% | -1%
CC(C)(C)c1ccc(Oc2ccc(NC(=O)c3ccccc3C(=O)O)cn2)cc1 | 0% | -3%
Cc1ccc(C)c(N2CCN(C(=O)CCNS(=O)(=O)c3ccc4c(c3)CCN4C(=O)C3CC3)CC2)c1 | -11% | 2%

# Screening results (PubChem)
